TRPV1 potentiator: HTS Assay for Compounds that Act as Potentiators of the Vanilloid Receptor 1; Transient receptor potential cation channel subfamily V member 1 (Homo sapiens), Q8NER1; TRPV1-expressing cells, Fluo-8 calcium influx, capsaicin EC20 potentiation; host cell line not named in the record; control for the full effect not named in the record; potentiation, % at 8.33 µM; 320,000 tested, 0.02% active; AID 540277, 2011; active means potentiation above 80%; inconclusive means 30% to 80%; inactive means below 30%; further: 0% is about no effect
Target sequence (Q8NER1 whole entry, looked up): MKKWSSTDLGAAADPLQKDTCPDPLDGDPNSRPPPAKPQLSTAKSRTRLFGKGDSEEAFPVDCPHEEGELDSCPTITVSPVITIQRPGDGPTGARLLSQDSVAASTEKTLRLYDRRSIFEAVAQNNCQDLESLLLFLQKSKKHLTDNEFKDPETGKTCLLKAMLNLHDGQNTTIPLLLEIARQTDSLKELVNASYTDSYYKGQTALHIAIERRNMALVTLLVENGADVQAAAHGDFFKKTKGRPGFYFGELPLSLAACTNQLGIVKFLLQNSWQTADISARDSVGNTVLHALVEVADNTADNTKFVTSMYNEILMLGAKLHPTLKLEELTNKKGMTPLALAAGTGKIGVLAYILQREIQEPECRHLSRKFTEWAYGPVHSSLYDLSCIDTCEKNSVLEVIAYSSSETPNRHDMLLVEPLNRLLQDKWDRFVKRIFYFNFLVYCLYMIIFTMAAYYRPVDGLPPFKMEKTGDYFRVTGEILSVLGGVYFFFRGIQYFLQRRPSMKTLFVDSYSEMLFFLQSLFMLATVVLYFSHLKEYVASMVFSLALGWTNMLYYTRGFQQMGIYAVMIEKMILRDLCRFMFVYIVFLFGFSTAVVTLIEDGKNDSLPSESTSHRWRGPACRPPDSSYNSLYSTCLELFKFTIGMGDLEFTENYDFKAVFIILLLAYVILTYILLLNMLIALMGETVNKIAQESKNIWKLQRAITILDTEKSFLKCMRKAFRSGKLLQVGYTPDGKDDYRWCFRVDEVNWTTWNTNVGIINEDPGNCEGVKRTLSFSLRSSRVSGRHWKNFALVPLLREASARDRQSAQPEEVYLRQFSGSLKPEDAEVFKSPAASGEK
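Cells expressing TRPV1 were dye-loaded with Fluo-8 and read kinetically: 10 s baseline, 3 min after compound (agonist portion), then 2 min after EC20 capsaicin (allosteric enhancer portion). Calcium-bound dye fluorescence at 480/520 nm.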
ClpP mod: qHTS Assay for Activators of ClpP; ATP-dependent Clp protease proteolytic subunit (Bacillus subtilis (strain 168)), P80244; purified B. subtilis ClpP, FRET peptide cleavage, 20 min; Potency, µM (titrated, usually from 57.5 µM), inactives show at the top dose activity change, negative = active; 340,000 tested, 1.9% active; active = well fitted falling curve with a large enough effect; inconclusive = small, poorly fitted or top-dose-only effect; inactive = no such curve, though single readings can be large or run the other way; further: potency means the concentration at half of the fitted maximal effect; the source files actives as falling curves though it sought activators and does not explain the sign; nearly all actives have a fitted effect of over 65% in size; many hits overshoot -100%
Target sequence (P80244 whole entry, looked up): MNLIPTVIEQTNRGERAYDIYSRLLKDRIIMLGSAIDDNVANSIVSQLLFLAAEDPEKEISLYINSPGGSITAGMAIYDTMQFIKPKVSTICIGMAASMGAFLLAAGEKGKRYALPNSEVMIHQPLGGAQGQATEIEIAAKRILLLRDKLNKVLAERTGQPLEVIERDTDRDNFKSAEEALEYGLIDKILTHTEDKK
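Buffer: 100 mM Tris/HCl pH8, 100 mM KCl, 0.05% low protease BSA, 2.5% glycerol, 0.01% Tween-20. ClpP 10 microg/mL final; 20 min RT; delta FRET normalized to ADEP and DMSO controls.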
Menin-MLL FL inh: qHTS Assay for Inhibitors Targeting the Menin-MLL Interaction in MLL Related Leukemias: Competition With Fluorescein Labeled MLL-derived Peptide | Fluorescence polarization, fluorescein-MLL peptide displacement from menin | FP activity change, % at 61.4 µM | 290,000 tested, under 10 active | AID 1766, 2009; inconclusive = falling polarisation curve, or a change in total fluorescence; inactive = total fluorescence flat and polarisation flat or rising; no compound was filed as active; the % refers to the polarisation; negative = inhibition;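 further: % of control where 0% means no effect; inhibitors lower the polarisation; unlabelled MLL peptide was the positive control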
gsp agonist: qHTS for Agonist of gsp, the Etiologic Mutation Responsible for Fibrous Dysplasia/McCune-Albright Syndrome: qHTS; AID 624287, 2012; 340,000 tested, 0.13% active; Potency, µM (doses to about 76.9 µM), for the others: top-dose activation (cAMP increase), hits mostly activators; gsp mutant cells, cAMP HTRF, 30 min; control for the full effect not named in the record; active = well fitted activation curve with a large enough effect; inconclusive = small, poorly fitted or top-dose-only effect, or another doubt; inactive = no such curve, though single readings can be large or run the other way; cell line not stated here;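 further: phosphodiesterase inhibitor Ro 20-1724 added with compounds to block cAMP breakdown; potency means the concentration at half of the fitted maximal effect; nearly all actives have a fitted effect of over 60% in size; about a fifth of the inactives were tested at one dose only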
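Cells in DMEM/10% FBS with G418 were pretreated with compounds in DMSO plus […] (300 uM stock) for 30 min at 37C. cAMP was measured by HTRF (cAMP-d2 plus anti-cAMP antibody-K) after 30 min at room temperature.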
gsp antagonist: qHTS for Antagonists of gsp, the Etiologic Mutation Responsible for Fibrous Dysplasia/McCune-Albright Syndrome: qHTS; Potency, µM (doses to about 76.9 µM), inactives show at the top dose activity change, negative = inhibition, most hits filed as inhibitors; 340,000 tested, 0.4% active; AID 624288, 2012; gsp-mutant cells, cAMP HTRF, 30 min; control for the full effect not named in the record; active = falling curve of any shape with a large fitted effect; inconclusive = falling curve, mostly with a smaller effect; inactive = flat or rising curve; cell line not stated here;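 further: intracellular cAMP measured with PDE inhibitor Ro 20-1724 present during compound exposure; potency means the concentration at half of the fitted maximal effect; on the % scale 0 is the no-effect control and ±100 the full control effect; nearly all actives have a fitted effect of over 65% in size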
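Measurement of cellular cAMP by homogeneous time-resolved fluorescence following a 30 min compound exposure at 37C. The PDE inhibitor […] was present throughout; the assay buffer was DPBS with 0.05% BSA and 0.005% Tween 20.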
TRPML1 inh: qHTS for Inhibitors of the Human Mucolipin Transient Receptor Potential 1 (TRPML1); 390,000 tested, 0.02% active; activity change, negative = inhibition, % (no concentration beside the values); AID 624415, 2012; Mucolipin-1 (Homo sapiens), Q9GZU1; TRPML1-inducible cells, Ca2+ dye fluorescence, FDSS; active compounds read low; inhibition of EC80 agonist-evoked calcium signal; in the data active means activity change below about -50%; inconclusive means about -30% to -50%; inactive means above about -30%;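 further: stimulus is agonist 54-4 at its EC80 concentration; on the % scale 0 is the no-effect control and ±100 the full control effect; compound concentration not given in the record; the text of the record puts the active cut at -80%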
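Calcium fluorescence in TRPML1-DL cells induced overnight with Tet: a 110 s read after compound pin addition, then a 110 s antagonist read after challenge with 54-4 at 4 uM final (EC80).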
Sfp PPTase inh: qHTS Assay for Inhibitors of Bacillus subtilis Sfp phosphopantetheinyl transferase (PPTase) | 4'-phosphopantetheinyl transferase ffp (Bacillus subtilis), Q9F4F7 | Biochemical Sfp PPTase activity, qHTS | Potency, µM, for inactives: max response, negative = inhibition, most hits filed as inhibitors | 310,000 tested, 3.5% active | AID 1490, 2009; active means well fitted inhibition curve with a large enough effect; inconclusive means small, poorly fitted or top-dose-only effect, or another doubt; inactive means no such curve, though single readings can be large or run the other way;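 further: the enzyme is Sfp with the accession as filed and its product quenches rhodamine fluorescence; potency means the concentration at half of the fitted maximal effect; 0% = enzyme reaction without inhibitor and -100% = no enzyme wells; top concentration of the series not given in the record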
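Fluorescence-quenching assay with 15 nM Sfp, 5 uM rhodamine-CoA and 12.5 uM BHQ-2-labelled ybbR peptide in pH 7.6 Hepes/MgCl2 buffer. Enzyme was pre-incubated with compound for 15 min at room temperature. Rate was taken from the 30-min fluorescence change (525/598 nm).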
* hit, by the source's call; u = inconclusive; x = no result given; [ ] = dose if it differs, or a comment.

SMILES	TRPV1 potentiator	ClpP mod	Menin-MLL FL inh	gsp agonist	gsp antagonist	TRPML1 inh	Sfp PPTase inh
COc1ccc(Cl)cc1Nc1cc(C)nc2ccccc12	x	-3.9%	x	u	-7%	13	x
Cc1ccc(C(=O)COC(=O)CN2C(=O)C3C4CCC(C4)C3C2=O)cc1[N+](=O)[O-] (stereo not given)	9	-0.9%	-2.3	3%	-8%	-4	6%
S=C(NCc1ccncc1)Nc1cc(Cl)cc(Cl)c1	-3	-4.0%	x	6%	-4%	0	-4%
CCOc1ccc(Nc2nc(N)nc(CSC(=S)N3CCN(c4ccccc4)CC3)n2)cc1	-2	-0.6%	2.6	-9%[15.4 µM]	11%	4	8%
Cc1ccc(S(=O)(=O)N2[C@@H](c3ccc(C(C)(C)C)cc3)C(C(=O)O)=CC[C@H]2c2ccc(Cl)cc2)cc1	x	0.5%	x	x	-28%	40	x
Cc1nn(CCCC(=O)N2CCc3ccccc3C2)c(=O)c2cc3sccc3n12	-9	-5.4%	-1.1	u	-12%	-1	-20%
Cc1nc(SC2CC(=O)N(c3ccccc3)C2=O)nc2c1CCCC2 (stereo not given)	0	-1.5%	3.6	u	-14%	-6	-2%
COC(=O)C[C@H]1C[C@H]2c3cc(NC(=O)Cc4ccncc4)ccc3O[C@H]2[C@@H](CO)O1	x	2.0%	x	-38%[inhibitor]	x	26	x
COC(=O)CNC(=S)NC(=O)c1ccc(C(C)(C)C)cc1	-15	0.4%	1.7	-32%	-6%	-2	-12%
CCC(=O)Nc1nnc(S(=O)(=O)N(CC)c2ccc(Cl)cc2)s1	24	0.4%	-0.5	0%	1%	5	8%
Cc1ccc([N+](=O)[O-])cc1NC(=O)CSc1n[nH]c(-c2cccnc2)n1	14	x	0.3	0%	-13%	8	9%
COc1cccc(CN(C)Cc2cc(=O)oc3c(C)c(C)ccc23)c1	-6	-0.8%	-0.6	1%	-27%	-11	-13%
O=C(c1cccc2ccccc12)N1CCC(N2CCN(c3ccccc3)CC2)CC1	-2	-1.3%	-1.3	-13%	-2%	-15	u
CCN1CCN(CCCNC(=O)C2CCCN(c3nc4c(C)cc(C)cc4s3)C2)CC1 (stereo not given)	10	1.9%	-3.2	-44%[inhibitor]	5%	11	1%
CC/C(=N\NC(=O)c1nnn(-c2nonc2N)c1-c1cccc(OC)c1)c1ccc(C)cc1	24	-12%	-4.3	5%	u	47	2%
COc1ccc(-c2nc(CS(=O)CC(=O)NCCN3CCCCCC3)c(C)o2)cc1OC (stereo not given)	19	x	0.2	29%	5%	5	-4%
CNC(=O)N(O)C1N(/N=C/c2ccc(SC)cc2)C(=S)SC1(C)C (stereo not given)	14	-7.0%	0.0	-21%	1%	1	2%
CCOc1ccc2oc(C(=O)Nc3ccc(N4CCOCC4)cc3)c(C)c2c1	-8	1.5%	-0.7	u	17%	-10	9%
Cc1ccc(OCC(=O)NNC(=O)CSC(=S)N2CCCC2)cc1	11	-4.7%	x	7%	5%	-7	x
Cc1ccc(OCc2nnc(SCC(=O)c3cccc([N+](=O)[O-])c3)n2C)cc1	-15	-1.1%	0.3	-51%[inhibitor]	5%	0	u

One compound at a time (already shown). Order of values: TRPV1 potentiator | ClpP mod | Menin-MLL FL inh | gsp agonist | gsp antagonist | TRPML1 inh | Sfp PPTase inh
CCOc1ccc2oc(C(=O)Nc3ccc(N4CCOCC4)cc3)c(C)c2c1 as listed: -8 | 1.5% | -0.7 | u | 17% | -10 | 9%
O=C(c1cccc2ccccc12)N1CCC(N2CCN(c3ccccc3)CC2)CC1 as listed: -2 | -1.3% | -1.3 | -13% | -2% | -15 | u
Cc1ccc([N+](=O)[O-])cc1NC(=O)CSc1n[nH]c(-c2cccnc2)n1 as listed: 14 | x | 0.3 | 0% | -13% | 8 | 9%
COc1cccc(CN(C)Cc2cc(=O)oc3c(C)c(C)ccc23)c1 as listed: -6 | -0.8% | -0.6 | 1% | -27% | -11 | -13%
CC/C(=N\NC(=O)c1nnn(-c2nonc2N)c1-c1cccc(OC)c1)c1ccc(C)cc1 as listed: 24 | -12% | -4.3 | 5% | u | 47 | 2%

(list continues)
SMILES	TRPV1 potentiator	ClpP mod	Menin-MLL FL inh	gsp agonist	gsp antagonist	TRPML1 inh	Sfp PPTase inh
Cc1ccc(NS(=O)(=O)c2cc(C(=O)N3CCN(C)CC3)ccc2C)cc1	-15	0.8%	1.5	6%	5%	3	4%
CCOc1ccc(CN(C)C(C)C(=O)Nc2ccc([N+](=O)[O-])cc2Cl)cc1OC (stereo not given)	10	2.5%	4.9	-15%	12%	5	u
CCOc1c(N2CCCCC2)c(=O)c1=O	0	0.6%	2.2	-6%	6%	7	30%
COc1ccc(OC)c(/C=C/c2[nH]c(=O)[nH]c(=O)c2[N+](=O)[O-])c1	-4	0.0%	-1.6	9%[15.4 µM]	4%	6	-12%
CCOC(=O)/C(=N/Nc1ccc(Br)cc1)N1CC(C)OC(C)C1 (stereo not given)	x	x	x	28%	-6%	36	x
Nc1nnc(SCC(=O)N2CCN(Cc3ccccc3)CC2)s1	4	-1.9%	3.8	17%	6%	u	-2%
O=C(c1cccs1)N1CCN(c2ccc([N+](=O)[O-])cc2F)CC1	-9	1.4%	-8.6	u	u	9	15%
Cc1ccccc1CSc1nc2ccccc2c(=O)n1C	14	-3.9%	x	-6%	-12%	42	x
CN(C)c1ccc(C(=O)OCC(=O)c2ccc[nH]2)cc1	x	x	x	-18%	-1%	3	x
Cc1ccc(NC(=S)NNC(=O)Nc2ccccc2)cc1	8	x	0.9	-5%[15.4 µM]	9%	5	u
CCOC(=O)CN1C(=O)CSc2ccccc21	-5	-0.1%	4.8	2%	10%	47	8%
COc1ccc(-n2nc([N+](=O)[O-])c(=NCCc3ccc(OC)c(OC)c3)n2O)cc1	-2	0.5%	0.1	u	-13%	-12	3%
CCn1cnc2cc(NC(=O)c3cccs3)ccc21	3	-0.8%	4.2	43%	-1%	-23	15%
O=C(NCc1cccnc1)/C(=C\c1ccc(-c2cccc(Cl)c2)o1)S(=O)(=O)c1ccccc1	27	-11%	-0.7	u	-5%	65	-23%
O=C1C(Cc2c[nH]c3ccccc23)NC(=S)N1Cc1ccccc1 (stereo not given)	1	x	-1.7	-9%[15.4 µM]	-3%	22	14%
Cc1cc(OC(C)C(=O)NC(Cc2c[nH]c3ccc(O)cc23)C(=O)O)c2c(C)cc(=O)oc2c1 (stereo not given)	16	-26%	-1.4	x	6%	x	14%
COc1ccc(CCNC(=O)COc2cccc(-n3cnnn3)c2)cc1	4	0.9%	x	-2%[15.4 µM]	-7%	-16	x
Nc1ncnc2c1ncn2[C@@H]1O[C@H](CNC(=O)[C@@H]2CCCN2S(=O)(=O)c2ccc(F)cc2)[C@@H](O)[C@H]1O	x	-0.6%	x	x	5%	-8	x
COc1ccc(N2CCN(C(=O)CNC(=O)c3ccc(C(C)(C)C)cc3)CC2)cc1	-15	-6.6%	3.8	-36%[inhibitor]	-2%	22	19%
S=c1[nH]nc(-c2cccc(Br)c2)o1	-1	u	2.9	u	17%	-4	11%
Cc1occc1-c1nnc(SCC(=O)NC2CCCCC2)o1	0	2.6%	x	3%	6%	16	x
CCOC(=O)c1c(S(=O)(=O)NCC(=O)Nc2ccc(F)cc2F)c(C)n(C)c1C	8	-2.3%	-1.0	u	7%	-4	5%
Cc1cc(Cl)ccc1OCCCC(=O)N1CCN(C(=O)c2ccco2)CC1	-20	-2.6%	2.1	36%	-4%	-1	9%
COCCNC(=O)c1snc2ccc(Cl)cc12	-8	-24%	-2.2	3%	-1%	-9	-6%
Cc1cc2oc(=O)cc(CN3CCC(C)CC3)c2cc1Cl	-8	-4.5%	1.0	-28%	7%	7	-3%
O=c1[nH]nc(-c2cc(-c3ccccc3)nc3ccccc23)o1	x	-10%	x	u	x	3	x
O=C(Cn1nnc(-c2ccccc2-n2cnnn2)n1)NCc1ccccc1	-8	1.5%	1.3	-11%	1%	1	-10%
N#CCCN(C(=S)Nc1ccc(S(=O)(=O)N2CCOCC2)cc1)c1ccccc1F	-2	-4.8%	x	-30%[inhibitor]	3%	-5	x
CCCc1cc(=O)oc2c(C)c(OC(C)C(=O)NCc3ccccn3)ccc12 (stereo not given)	9	4.3%	-2.3	u	-2%	-11	9%
Cc1ccc2nc(SCC(=O)Nc3cc(C(F)(F)F)ccc3N3CCOCC3)[nH]c2c1	3	1.2%	2.1	2%	12%	6	14%
CCN(CC)C(=O)Cn1cc(C(=O)C(=O)NCCCN2CCCCC2)c2ccccc21	-1	-0.4%	x	8%[15.4 µM]	-9%	9	14%
Cc1ccc(NC(=O)Cn2cccc2C2=NC(c3ccccc3)CO2)cc1C (stereo not given)	3	-13%	4.2	8%	u	-14	-3%
O=C(COc1ccc(S(=O)(=O)N2CCCCC2)cc1Cl)N1CCCC1	-2	x	2.0	-32%	-5%	-16	5%
CCCc1cc(=O)oc2c(C)c(OS(C)(=O)=O)ccc12	x	-27%	x	9%	4%	22	x
CN(C)C(CNC(=O)c1cccc(OC(F)F)c1)c1ccco1 (stereo not given)	-4	-4.9%	11	6%	1%	-10	4%

Screens (PubChem)
